GLA inh pH 4.5: qHTS Assay for Inhibitors of Human alpha-Galactosidase at pH 4.5. Alpha-galactosidase A (Homo sapiens), P06280. purified enzyme, 4-MU-alpha-Gal fluorescence, pH 4.5. activity change, negative = inhibition, % at 105 µM. 230,000 tested, under 10 active. AID 1467, 2008; inconclusive = small, poorly fitted or top-dose-only inhibition, or a rising curve; inactive = flat fitted curve, though single readings scatter; no compound was filed as active;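 also: 0% = full activity with enzyme and -100% = basal without enzyme; dose as in the result columns while the protocol names 77 µM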
miR-21 FLuc: qHTS Assay for Modulators of miRNAs and/orActivators of miR-21; AID 2288, 2010; HeLa miR-21 FLuc reporter, luciferase, 48 h; 340,000 tested, under 10 active; Potency, µM (series often up to 38.3 µM), for the others: top-dose reporter change, positive = more light; active = well fitted rising curve with a large enough effect; inconclusive = small, poorly fitted or top-dose-only effect; inactive = no such curve, though single readings can be large or run the other way;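 also: % of control where 0% means no effect; miR-21 action dims this reporter so a rising signal means less miR-21 action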
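HeLa cells stably expressing CMV-driven firefly luciferase with a downstream miR-21 binding sequence, endogenously expressing miR-21, were treated with titrations (up to about 40uM final) for 48 hours at 37 degree Celsius. Luciferase luminescence was read after lysis.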
Rango-impB inh: qHTS Assay for Inhibitors of Rango (Ran-regulated importin-beta cargo) - Importin beta complex formation. Importin subunit beta-1 (Homo sapiens), Q14974. Potency, µM (highest dose often 92.2 µM), for inactives: at the highest dose inhibition of complex formation. 340,000 compounds, 0.031% hits. Rango CFP/YFP FRET sensor + importin beta, 45 min. AID 540263, 2011; active = rising FRET ratio curve, often small or poorly fitted; inconclusive = mostly compound fluorescence or quenching in the first reads; inactive = flat curves in all reads;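 also: potency is read from the fitted curve at half-maximal effect; 0% = DMSO wells and 100% = buffer wells lacking importin beta; nearly all actives have a fitted effect of over 15% in size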
Target sequence (Q14974 whole entry, looked up): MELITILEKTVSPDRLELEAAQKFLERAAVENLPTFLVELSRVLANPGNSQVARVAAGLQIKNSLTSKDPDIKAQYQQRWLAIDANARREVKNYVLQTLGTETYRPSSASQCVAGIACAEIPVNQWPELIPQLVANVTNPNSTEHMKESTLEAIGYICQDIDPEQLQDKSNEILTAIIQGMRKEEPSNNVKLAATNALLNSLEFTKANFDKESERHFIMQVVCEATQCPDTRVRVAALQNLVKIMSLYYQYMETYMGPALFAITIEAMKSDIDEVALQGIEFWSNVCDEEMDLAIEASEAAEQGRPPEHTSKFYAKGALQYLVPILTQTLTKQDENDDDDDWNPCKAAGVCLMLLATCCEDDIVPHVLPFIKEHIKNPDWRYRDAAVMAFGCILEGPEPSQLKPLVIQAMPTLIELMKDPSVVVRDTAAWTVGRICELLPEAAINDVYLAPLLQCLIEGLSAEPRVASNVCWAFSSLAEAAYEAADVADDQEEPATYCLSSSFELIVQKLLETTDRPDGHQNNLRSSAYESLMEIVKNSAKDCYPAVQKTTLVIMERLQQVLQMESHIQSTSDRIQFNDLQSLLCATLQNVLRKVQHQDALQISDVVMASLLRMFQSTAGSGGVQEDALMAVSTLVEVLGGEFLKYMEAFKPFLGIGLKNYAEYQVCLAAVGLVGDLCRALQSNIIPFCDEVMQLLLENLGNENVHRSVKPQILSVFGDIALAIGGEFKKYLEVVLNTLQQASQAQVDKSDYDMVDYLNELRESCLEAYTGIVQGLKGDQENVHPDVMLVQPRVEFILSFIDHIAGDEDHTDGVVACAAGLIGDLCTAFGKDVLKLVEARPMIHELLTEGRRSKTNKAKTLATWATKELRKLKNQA
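FRET biosensor Rango (snurportin 1 IBB between N-terminal EYFP and C-terminal Cerulean), 50 nM in PBS/1 mM DTT/0.02% Tween-20/0.1% BSA, preincubated 5 min RT with compound; 0.125 microM importin beta added, 45 min RT, CFP/YFP FRET ratio read.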
Rango release inh: qHTS Assay for Inhibitors of RanGTP induced Rango (Ran-regulated importin-beta cargo) - Importin beta complex dissociation; Snurportin-1 (Homo sapiens) + GTP-binding nuclear protein Ran (Homo sapiens) + Importin …; Biochemical FRET Rango-importin beta, RanGTP-induced dissociation; 340,000 compounds, 0.071% hits; Potency, µM (doses to about 46.1 µM), without a hit: top-dose activity change, negative = inhibition; AID 540253, 2011; active means falling FRET ratio curve, often poorly fitted, with flat reads before Ran was added; inconclusive means other falling curves, or compound fluorescence or quenching; inactive means flat or rising ratio curve;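 also: potency is read from the fitted curve at half-maximal effect; % of control where 0% means no effect; nearly all actives have a fitted effect of over 45% in size; -100% = wells without RanGTP and RCC1; the record marks most hits as doubtful in a second field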
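Two FRET readings bracket the reaction: one 5 min after compound meets Rango–importin beta, another 45 min after RanGTP-RCC1 (0.6 uM Ran, 0.2 uM RCC1, 2 mM GTP) is added. Only the second defines inhibition.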
The depositor's hits bear a star; ? = inconclusive; . = not tested or not shown; & = joins results of further samples. Some of the compounds tested. The share of hits here may be higher or lower than overall.

GLA inh pH 4.5	miR-21 FLuc	Rango-impB inh	Rango release inh	mol
.	0.3%	2.0%	-23.2%	COc1ccccc1C(=O)Nc1ccnn1C1CCN(Cc2cnc(N(C)C)s2)CC1
.	.	2.4%	3.5%	CC(=O)NC12CC3CC(C1)CC(C(=O)N1CCN(S(=O)(=O)c4ccc([N+](=O)[O-])cc4)CC1)(C3)C2
-11.9	-0.1%	-0.4%	5.4%	Cc1cccc(N(CC(=O)N2CCOCC2)S(C)(=O)=O)c1
8.4	-52.7%	?	?	CC(=O)Nc1ccc(O)c(-c2nc3ccccc3s2)c1
-10.7	-59.4%	-5.8%	-21.4%	CCS(=O)(=O)c1ccc2oc(Nc3cccc(OC)c3)nc2c1
.	-2.9%	7.3%	9.5%	COc1ccc(S(=O)(=O)Nc2ccc(Oc3ccsc3C(=O)O)cc2)cc1
5.5	4.1%	1.9%	-13.3%	CCSc1nnc([C@@H]2CCCN2C(=O)OC(C)(C)C)o1
.	-58.5%	1.9%	-14.6%	CN(C)C(CNC(=O)c1cc2ccccc2oc1=O)c1ccccc1 (centres undefined)
-0.5	-1.0%	4.1%	-11.7%	C=CCSc1nnc(NC(=O)CSc2nnc(C)s2)s1
-1.4	-6.0%	?	?	COc1cc(/C=C2/CCCC(C(=O)C(F)(F)F)=C2O)ccc1O
-6.4	-1.6%	-0.7%	27.4%	COc1ccc(CN(C(=O)CO/N=C/c2ccccc2)c2ccccc2C(=O)O)cc1
6.0	0.7%	0.2%	0.4%	O=C(NCC1CC1)C1CCCN(S(=O)(=O)c2ccc(-n3cnnn3)cc2)C1 (centres undefined)
3.4	-7.3%	?	-10.0%	Fc1cccc(Cl)c1-c1nnc2ccc(N3CCOCC3)nn12
.	-2.4%	-0.4%	9.4%	Cc1ccc(-c2nc3ncccc3o2)cc1NC(=O)C(C)C
0.2	3.2%	-2.4%	30.6%	CCOC(=O)C1=C(CSc2nnnn2C)N(C)C(=O)NC1c1ccccc1 (centres undefined)
-6.9	-18.1%	-0.2%	-14.6%	CC(=O)Nc1ccc(C2C(=O)c3ccccc3C2=O)cc1
7.9	-12.0%	-1.2%	0.7%	COc1ccc(/C=C/C(=O)Oc2ccc(/C=N\NC(=O)c3ccc(F)cc3)cc2)cc1
-14.7	-16.5%	1.9%	-7.6%	CCC(C)(C)NCC(=O)Nc1ccc(OC(F)(F)F)cc1
.	-44.0%	-0.3%	13.6%	Cc1occc1C(=O)NNC(=S)NC(=O)COc1ccc(Cl)cc1Cl
.	-4.0%	-2.2%	5.4%	CC(C)c1nc(SCC(=O)NC2CCCCC2)c2ccccc2n1
.	-4.8%	2.0%	-8.2%	CC(NC(=O)COc1ccc(Br)cc1)C1CCCO1 (centres undefined)
6.5	0.1%	-1.6%	-12.5%	Cc1ccc(-n2cccn2)c([C@@H]2C[C@H]3CN(C)C(=O)[C@]34CCCN24)c1
.	.	0.0%	7.1%	Cc1ccc(NC(=O)CCCNC(=O)c2ccc(Cl)cc2)cc1S(=O)(=O)N1CCCCC1
0.3	-1.3%	-5.4%	-0.4%	CCCS(=O)(=O)N1CCCC(C(=O)NCCCOC(C)C)C1 (centres undefined)
-7.9	1.9%	-2.4%	6.6%	CCOC(=O)C1CCCN(Cc2nc(N)nc(Nc3ccc(OC)cc3)n2)C1 (centres undefined)
-3.9	-3.1%	-4.6%	2.6%	CCN(CC)S(=O)(=O)c1ccc(NC(=O)COc2nc3ccccc3nc2N2CCOCC2)cc1
-15.4	20.2%	?	-2.5%	CCn1ccnc1CN1CCc2c([nH]c3ccccc23)C1C(C)(C)C (centres undefined)
.	-21.0%	0.1%	24.3%	N#Cc1ccc(COc2cccnc2[N+](=O)[O-])cc1
.	11.9%	0.4%	2.9%	CCc1ccc(OCC(O)Cn2c(N3CCCCC3)nc3c2c(=O)[nH]c(=O)n3C)cc1 (centres undefined)
2.5	1.5%	-1.9%	-11.6%	COC(=O)c1ccc(/C=N/N2CCN(Cc3ccccc3Cl)CC2)cc1
.	.	-3.4%	-19.1%	CC1(C)C=Cc2c(ccc3c2OC[C@H](c2ccc(O)cc2O)C3)O1
.	.	-0.6%	0.4%	COC(=O)c1ccccc1N(C)S(=O)(=O)c1cc2c3c(c1)CCC(=O)N3CCC2
-0.5	1.5%	0.5%	-11.6%	N#C/C(=C/c1ccc(Cl)cc1)NC(=O)c1ccccc1
-5.6	6.3%	-1.7%	-18.7%	CCCn1nnnc1NCc1cc(Br)ccc1OC
.	-5.5%	1.9%	-0.7%	C[C@H](NC(=O)[C@@H]1CSC2c3ccccc3C(=O)N21)C(=O)NC1CCCCC1 (some centres undefined)
12.4	-2.4%	?	0.3%	COc1ccc(-c2cc(-c3ccc(C)cc3)nc(SCc3nnc(-c4ccccc4)o3)c2C#N)cc1OC
4.4	-6.5%	9.1%	0.7%	O=C(NN1C(=O)C2C3C=CC(C3)C2C1=O)c1ccncc1 (centres undefined)
-27.1	-0.2%	-1.8%	-0.5%	Cc1cccc(-c2nnn(C/C(N)=N/O)n2)c1
1.1	-3.5%	2.0%	18.2%	COC(=O)c1ccccc1NC(=O)CSc1nnc(C(C)NC(=O)c2ccc(Cl)cc2Cl)n1C (centres undefined)
.	.	4.7%	-1.8%	CC[C@]12c3[nH]c4ccc(Cl)cc4c3CCN1C(=O)[C@@H](CC(=O)NCc1cccc(C(F)(F)F)c1)C[C@@H]2C(=O)N1CCN(C(=O)C2CC2)CC1
.	1.7%	0.8%	7.4%	CCC(=O)N1CCc2cc(S(=O)(=O)N3CCCCCC3)ccc21
-5.3	-0.9%	?	19.7%	COc1cc(/C=C2\SC(=S)N(NS(=O)(=O)c3ccccc3)C2=O)ccc1O
-5.6	18.2%	0.6%	-4.4%	O=C(Nc1ccc(Br)cc1)C1CCCN1S(=O)(=O)c1cccs1 (centres undefined)
-6.6	-7.8%	.	.	CCNC(=O)CSc1nc2cc(OC)c(OC)cc2c(=O)n1CCC1=CCCCC1
.	.	1.3%	16.7%	COc1ccc(NC(=O)COC(=O)Cn2cnc3ccccc3c2=O)c(OC)c1
.	4.1%	-5.1%	15.2%	COc1ccc(NC(=O)CN2CCN(C(=O)C3CCCO3)CC2)c(OC)c1 (centres undefined)
-2.6	-14.3%	-3.0%	11.1%	CSc1nc2ccc(S(=O)(=O)N3CCOCC3)cc2s1
1.5	-7.0%	1.2%	11.3%	COc1ccc(-n2c(C)nc(=O)c(-c3ccccc3)c2C)cc1
.	-0.8%	0.8%	-10.7%	CCOCCCNC(=O)C1(O)c2ccccc2NC(=O)N1c1ccc(Cl)c(Cl)c1 (centres undefined)
.	-1.0%	-3.1%	-6.4%	CC(C)C(NC(=O)c1ccccc1NC(=O)c1ccccc1)C(=O)NCCCn1ccnc1 (centres undefined)
-12.3	0.5%	?	?	Nc1c(C(=O)N/N=C/c2ccccc2Cl)oc2nc(-c3ccccc3)cc(-c3ccco3)c12
.	-0.1%	-0.8%	-7.3%	COc1cc(CN2CCCCCC2)cc(OC)c1
.	-42.6%	-0.4%	-7.7%	O=C(c1ccc2oc(CCc3ccccc3)nc2c1)N1CCC(O)CC1
.	23.3%	8.6%	3.6%	CCN1CCN(Cc2ccc(NC(=O)c3ccc(C)c(NC(=O)c4cccc(-c5cn[nH]c(=O)c5)c4)c3)cc2C(F)(F)F)CC1
.	14.3%	0.4%	-14.6%	CC(=O)N[C@@H](Cc1c[nH]c2ccccc12)C(=O)NC1CCCc2ccccc21 (some centres undefined)
.	6.3%	-0.3%	33.7%	Cc1ccc(OCC(=O)N/N=C/c2cccc3cccnc23)cc1

Next part
GLA inh pH 4.5	miR-21 FLuc	Rango-impB inh	Rango release inh	mol
.	28.3%&29.6%	-1.4%	12.2%	COc1ccc(C(=O)Nc2ccc3c(c2)CCCN3C(=O)c2cccs2)c(OC)c1
1.7	-45.7%	0.6%	0.0%	Cc1ccc(-c2noc(-c3ccccc3C(=O)N3CCCC3)n2)cc1
.	-4.9%	-2.3%	9.4%	COCCC1CCCCN1C(=O)c1cccc(OC2CCN(S(C)(=O)=O)CC2)c1 (centres undefined)
0.5	-20.2%	0.5%	-14.6%	O=C(COc1ccc(Br)cc1CO)Nc1ccc(F)cc1
1.1	-0.1%	0.7%	6.1%	O=C(COC(=O)C1CCN(S(=O)(=O)c2cccs2)CC1)c1ccccc1
.	8.0%	-1.7%	10.1%	COc1cc2c(cc1OC)[C@@H]1Cc3ccc(OC)c(OC)c3CN1CC2
-3.3	-4.2%	?	?	Cc1cccn2c(=O)c3cc(S(=O)(=O)c4ccccc4)c(=N)n(CC4CCCO4)c3nc12 (centres undefined)
-1.6	17.8%	3.6%	-19.5%	CC(=O)N1CCc2cc(S(=O)(=O)N3c4ccccc4CC3C)ccc21 (centres undefined)

An excerpt from above, reduced to GLA inh pH 4.5, Rango release inh and Rango-impB inh:
mol	GLA inh pH 4.5	Rango release inh	Rango-impB inh
COc1ccc(/C=C/C(=O)Oc2ccc(/C=N\NC(=O)c3ccc(F)cc3)cc2)cc1	7.9	0.7%	-1.2%
C[C@H](NC(=O)[C@@H]1CSC2c3ccccc3C(=O)N21)C(=O)NC1CCCCC1 (some centres undefined)	.	-0.7%	1.9%

More records.
GLA inh pH 4.5	miR-21 FLuc	Rango-impB inh	Rango release inh	mol
-3.7	-5.3%	0.5%	-13.0%	Cc1cccc(Oc2ccc(C(=O)NC3CCSC3=O)cn2)c1C (centres undefined)
-1.7	6.2%	-3.2%	-10.6%	COc1cc2c(cc1NC(=O)CSc1nc3cc(Cl)ccc3s1)oc1ccccc12
.	-59.4%	-0.2%	-0.4%	CS(=O)(=O)c1cccc(C(=O)Nc2ccc3c(c2)OCCCO3)c1
-3.8	-0.4%	4.0%	-2.2%	CCOC(=O)c1c(O)c(O)c(C(=O)OCC)n1-c1ccccc1
1.0	-2.8%	0.9%	-6.0%	COc1ccc(CCNC(=O)C2CCN(c3nn4c(=O)cc(C)nc4s3)CC2)cc1OC
1.9	0.4%	2.4%	0.9%	CN(C)CCCn1c(SCC(=O)N2CC(=O)Nc3ccccc32)nc2ccccc2c1=O
.	-31.3%	0.4%	8.5%	c1ccc(-c2cccc(-c3ccccc3)n2)cc1
.	.	1.9%	24.8%	CC1CC(C)CN(C(=O)C2CCN(C(=O)Nc3ccccc3)CC2)C1 (centres undefined)

Compounds shown so far with a nitro group on carbon (two):
GLA inh pH 4.5	miR-21 FLuc	Rango-impB inh	Rango release inh	mol
.	.	2.4%	3.5%	CC(=O)NC12CC3CC(C1)CC(C(=O)N1CCN(S(=O)(=O)c4ccc([N+](=O)[O-])cc4)CC1)(C3)C2
.	-21.0%	0.1%	24.3%	N#Cc1ccc(COc2cccnc2[N+](=O)[O-])cc1

Carrying on:
GLA inh pH 4.5	miR-21 FLuc	Rango-impB inh	Rango release inh	mol
.	.	3.6%	-9.7%	CC(=O)Nc1ccc(S(=O)(=O)NC2(c3ccccc3)C(=O)N(C)C(=O)N(C)C2=O)cc1
-13.8	-0.7%	-1.6%	-3.2%	CCOC(=O)CSc1nc(-c2ccccc2)ns1
.	-2.6%	0.2%	-8.8%	CCOC(=O)c1c(S(=O)(=O)NCC(=O)Nc2ccc(OC)cc2)c(C)n(C)c1C
-2.1	-0.4%	2.8%	7.0%	CCN=C(NCC)SC1CC(=O)N(c2cccc(OC)c2)C1=O (centres undefined)
.	-46.2%	2.6%	5.2%	Cn1c(O)c(N=Nc2ccccc2[N+](=O)[O-])c2ccccc21
0.6	-26.6%	?	-29.8%	COc1cc2c(cc1OC)C1=C(C#N)CN(CC(=O)O)CN1CC2
.	-3.7%	1.1%	-2.4%	Cc1cc(C)c(S(=O)(=O)N2CCC(C(=O)NCc3ccncc3)CC2)c(C)c1
.	-6.5%	?	?	N#Cc1cnn2c(C(F)(F)F)cc(-c3ccccc3)nc12

High-throughput results (PubChem BioAssay)
